AID504770 – growth inhibitors of E. coli YBA685 in a screen for V. cholerae RctB (chromosome II replication) inhibitors | E. coli YBA685 rctB-dependent plasmid, OD600 growth, 3 h; hits give low values | z-score (no concentration beside the values) | hit rate 0.27% among 130,000 | AID 504770;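 active = z-score under -2 on both plates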;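 note: wells of about 30 µL received 100 nL stock; score is relative to mean and SD of the test wells; the first replicate is given; strong numbers were not always called active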
Ba CapD inh – inhibitors of Bacillus anthracis CapD enzyme | z-score (concentration not given with the values) | purified CapD enzyme, fluorescence intensity read-out; hits give low values; some hits fall short of the stated cut | AID 492967 | hit rate 0.23% among 140,000;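 active = z-score under -4 in either of two replicates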;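 note: stock transfer was 100 nL into about 40 µL; score is relative to mean and spread of the plate; one replicate is shown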
* hit, by the source's call; / = no result given. A portion of the library (hit frequency here may not be typical).

SMILES	AID504770	Ba CapD inh
CC(=O)Nc1ccc2c(c1)OCCOCCOc1ccc(NC(C)=O)cc1OCCOCCO2	/	-0.145
CC(C)(C)c1ccc(-c2nnc(-c3ccccc3NC(=O)/C=C\C(=O)O)o2)cc1	0.25	38.2
CNCc1nnc(-c2ccccc2)o1	-0.05	0.005
COc1cc(C2C3=C(CC(C)(C)CC3=O)OC3=C2C(=O)CC(C)(C)C3)ccc1OCc1ccc(Cl)cc1Cl	/	-0.545
O=C(Cn1cnc2ccccc2c1=O)Nc1ccccc1C(=O)NCc1ccc2c(c1)OCO2	1.45	/
N#CCC(=O)NNC(=S)NC1CCCCCC1	/	-0.135
O=C(c1ccccc1)N1N=C(c2ccccc2)OC1c1ccccc1 (stereo not given)	/	0.12
O=C(CN1CCC(N2CCCCC2)CC1)c1ccc(F)cc1	-0.75	/
CCOC(=O)C1=NN(c2ccc(C)cc2)C2C(=O)N(c3cccc(Cl)c3)C(=O)C12 (stereo not given)	/	0.12
CC(C)C(C)(N)C#N (stereo not given)	0.1	/
CCn1c(-c2ccc(C(C)(C)C)cc2)n[nH]c1=S	0.15	/
O=C(N/N=C/c1csc([N+](=O)[O-])c1)c1ccc(C(F)(F)F)cc1	/	-0.31
O=C(OCCS(=O)(=O)c1ccc(C(F)(F)F)cn1)c1ccc(Cl)c(Cl)c1	1.8	0.055
O=C(CNC(=O)c1ccco1)OCN1C(=O)c2ccccc2C1=O	-0.1	0.06
Cc1c(C)c(C)c(CO)c(C)c1C	/	-0.13
COC(=O)CNc1nc(C2CC2)nc2c1nnn2Cc1ccccc1Cl	3.15	/
COC(=O)c1cc(S(=O)(=O)NCC2CCN(Cc3ccc(Cl)cc3)CC2)cn1C	-1.05	-0.315
CC(=O)N/N=C(/c1ccccc1)C(O)c1ccccc1 (stereo not given)	-0.8	0.48
CC(=Nc1cccc(Cl)c1)c1sc2ccccc2c1O	/	-0.095
c1ccc(CN2CCCN(Cc3ccccc3)C2c2cccs2)cc1	0.5	-0.085
COc1cc(/C=C2\C(=O)NC(=O)N(c3ccc(Cl)cc3)C2=O)ccc1OCC(=O)O	/	0.115
Cc1cc(C)c(/C(O)=C2/C(=O)C(=O)N(c3ccccn3)C2c2cccnc2)c(C)c1 (stereo not given)	/	-0.265
CCOC(=O)c1c(C)oc2c1c(C(c1ccc(OC)cc1)N1CCOCC1)c(O)c1ccccc12 (stereo not given)	-0.85	-0.805
CC1CCCN(C(=O)c2ccc(NC(=O)C(O)(c3ccccc3)c3ccccc3)cc2)C1 (stereo not given)	-0.05	0.115
Cc1ccsc1CN(C)CC(=O)NC1CCCC1	-0.3	/
COC(=O)c1cccc(-n2c3nc(=O)[nH]c(=O)c-3cc3ccccc32)c1	/	2.06
COc1ccccc1OC(C)C(=O)N1CCN(C/C=C/c2ccccc2)CC1 (stereo not given)	-0.45	/
Cc1ccc(N/C=C2/Cn3cccc3C2=O)cc1	-0.35	/
Cc1cccc(C)c1NC(=O)O/N=C(/COc1ccccc1[N+](=O)[O-])C(C)(C)C	/	-0.475
O=C(CCc1cn(Cc2ccccc2)c2ccccc12)NCCc1ccc(Cl)cc1	-0.35	1.15
CCCCCCCC(=O)Nc1nnc(Sc2ccnc3cc(Cl)ccc23)s1	/	-0.225
COc1ccc(OCCOC(=O)c2ccc(SC)cc2OC)cc1	-0.4	/
COc1ccccc1C(=O)Nc1cc2[nH]c(=O)[nH]c2cc1C	1.25	0.75
O=C(O)c1nn(Cc2coc(-c3cccs3)n2)c(=O)c2ccccc12	-0.3	/
NC(=O)C1CCN(C(=O)Cn2ncc3c4ccccc4n(Cc4ccc(F)cc4)c3c2=O)CC1	0.15	0.525
O=C(COc1ccccc1)NCc1ccco1	0.3	-0.245
O=C(CCC1COc2ccccc2O1)NC1CCCCC1 (stereo not given)	0.75	-0.525
O=S(=O)(NC1CC1)c1ccc(F)cc1	1.95	/
O=C(OCC(=O)N1CCCC1)c1cc(Cl)ccc1Cl	0.1	/
O=C1N(CN2CCOCC2)c2ccccc2C12OCC(COc1ccc(Cl)cc1)O2 (stereo not given)	/	-0.16
Cn1c(=NC(=O)C2=NN(C3CCS(=O)(=O)C3)C(=O)CC2)sc2ccccc21 (stereo not given)	-0.85	/
COC(=O)c1ccc(OC(=O)c2ccc(Br)o2)cc1	-0.8	-0.67
COc1ccc2oc(=O)c(-c3nc(-c4ccc(Oc5ccccc5)cc4)cs3)cc2c1	/	0.03
O=C(Nc1ccc(Cl)cn1)c1cc(-c2ccccc2)nc2ccccc12	/	0.195
CCOc1ccc(-c2n[nH]c(C(F)(F)F)c2Oc2ccccc2)c(O)c1C	-0.4	0.435
CCOC(=O)c1sc(N)c(C(=O)OCC)c1COC(=O)c1cnc(C)cn1	-0.05	/
COc1ccc(CNC(=O)CCc2nnc3ccc(NCCCN4CCCC4=O)nn23)cc1	1.85	0.435
CCn1cc(C(=O)NC(=S)Nc2sc3c(c2C(=O)OC)CCCCCC3)cn1	0.45	0.275
Cc1cc2cc(CNC(=O)C3CCCC3)ccc2[nH]1	-0.3	-0.26
Cc1c(NC(=O)CSc2ncn[nH]2)c(=O)n(-c2ccccc2)n1C	/	0.985
CC(C)(C)C(=O)NC(C(=O)O)C12CC3CC(CC(C3)C1)C2 (stereo not given)	-0.7	/
COC(=O)c1ccc(NC(=O)CC2Sc3ccc(C(F)(F)F)cc3NC2=O)cc1 (stereo not given)	0.5	0.51
Cn1nc(C(F)(F)F)c(COC(=O)c2ccc(Cl)cc2)c1Cl	/	0.53
CC1CCN(C(=O)CSCC(=O)O)CC1	1.4	/
CCN1C(=O)/C(=C/c2ccc(NC(C)=O)cc2)SC1=S	0.35	-0.495
N/C(=N\S(=O)(=O)c1cc(Cl)c(Oc2ccc([N+](=O)[O-])cc2Cl)c(Cl)c1)c1cccnc1	/	0.38
CCN(CC)Cc1c(O)ccc2occ(C(=O)c3ccccc3)c12	-0.45	0.24
Cc1ccc2c(c1)-c1c(ssc1=S)C(C)(C)N2CC(=O)c1ccc(F)cc1	/	-0.62
O=C(CCc1ccccc1)NNc1ccc(F)cc1	0	-1.15
CCOc1ccccc1NC(=O)c1c(NC(=O)c2cccc(F)c2)sc2c1CCCCC2	/	-0.1
Next records:
SMILES	AID504770	Ba CapD inh
CC(=O)N1CCCc2cc(S(=O)(=O)Nc3cc(C)[nH]n3)ccc21	-0.7	-0.305
Cc1ccc2oc(=O)c3cc(C(=O)Nc4ccc5c(C)cc(=O)oc5c4)sc3c2c1	1.8	0.46
O=C(Nc1ccc(F)cc1)c1sccc1Oc1ccc([N+](=O)[O-])cc1F	/	-1.34
FC(F)(F)c1ccccc1-c1[nH]ncc1-c1ccncc1	/	-0.345
Cc1ccc(NC(=O)c2sc3ncnc(N4CCOCC4)c3c2C)cc1Cl	/	0.155
CC(=O)N1CN(Cc2cccnc2)Cc2c1sc1c2CCCC1	1.4	/
COc1ccc(OC)c(-n2c(=S)[nH]c3cc(C(=O)NCc4ccccc4OC)ccc3c2=O)c1	/	0.48
COc1cc2ccccc2cc1C(=O)Nc1ccc2nc(C)sc2c1	/	0.885
Clc1ccc(-c2nn(-c3ccccc3)cc2C=NCc2ccco2)cc1	0.1	/
COc1ccc(C(=O)Nc2sc3c(c2C(=O)NCc2ccco2)CCCC3)cc1OC	-0.7	2.48
CCOc1ccc(NC(=S)N2CC(O)CC2C(N)=O)cc1 (stereo not given)	-0.35	/
O=C1C2C3C=CC(C3)C2C(=O)N1c1ccc(Cl)cc1 (stereo not given)	0.45	/
CNCCC(Oc1ccc(C(F)(F)F)cn1)c1ccccc1 (stereo not given)	/	-0.445
N/C(=N\O)c1ccsc1	-1.15	/
CCCNC(=O)C(C)N (stereo not given)	-0.85	/

A run of entries of the results above:
SMILES	AID504770	Ba CapD inh
CC(=O)N1CCCc2cc(S(=O)(=O)Nc3cc(C)[nH]n3)ccc21	-0.7	-0.305
Cc1ccc2oc(=O)c3cc(C(=O)Nc4ccc5c(C)cc(=O)oc5c4)sc3c2c1	1.8	0.46
O=C(Nc1ccc(F)cc1)c1sccc1Oc1ccc([N+](=O)[O-])cc1F	/	-1.34
FC(F)(F)c1ccccc1-c1[nH]ncc1-c1ccncc1	/	-0.345
Cc1ccc(NC(=O)c2sc3ncnc(N4CCOCC4)c3c2C)cc1Cl	/	0.155
CC(=O)N1CN(Cc2cccnc2)Cc2c1sc1c2CCCC1	1.4	/

Rewritten with each value named: 3 of the compounds above.
SMILES: O=C1C2C3C=CC(C3)C2C(=O)N1c1ccc(Cl)cc1 (stereo not given)
  AID504770 = 0.45	Ba CapD inh = /
SMILES: CCOc1ccc(NC(=S)N2CC(O)CC2C(N)=O)cc1 (stereo not given)
  AID504770 = -0.35	Ba CapD inh = /
SMILES: CC(=O)N1CN(Cc2cccnc2)Cc2c1sc1c2CCCC1
  AID504770 = 1.4	Ba CapD inh = /

Further compounds follow.
SMILES	AID504770	Ba CapD inh
N#CC1=C(N)OC2=C(C(=O)CCC2)C1c1ccoc1 (stereo not given)	0.2	/
COC(CNC(=O)CN1C(=O)/C(=C/c2ccccc2F)Oc2ccccc21)OC	1.35	3.44
COC(=O)/C(=C/c1ccc(OC(F)(F)F)cc1)NC(=O)c1ccccc1	-0.65	0.29
O=S(=O)(Nc1ccccc1N1CCOCC1)c1cccs1	-0.55	0.63
CC(C)COc1ccc(CC(C#N)C(=O)O)cc1Cl (stereo not given)	-1	0.4
O=C(NCCNc1nccc(C(F)(F)F)n1)c1ccco1	/	2.33
O=[N+]([O-])c1ccc(-c2nc(-c3ccc(-c4nc(-c5ccc([N+](=O)[O-])cc5)c(-c5ccccc5)[nH]4)cc3)[nH]c2-c2ccccc2)cc1	/	0.035
CCOC(=O)C1=C(C)NC2=C(C(=O)C(C(=O)OCC)C(c3cccc(OC)c3)C2)C1c1ccc(Br)cc1 (stereo not given)	/	3.03
Nc1c(C(=O)Nc2ccccc2C(F)(F)F)sc2[nH]c(=O)c(C(=O)O)cc12	-0.25	0.505
CC(C)Oc1cc(N)c(Cl)cc1Cl	1.75	-0.21
N#CCSc1nc2c(sc(=S)n2-c2ccccc2)c(=O)[nH]1	/	-0.035
O=c1[nH]nc(SCc2csc(-c3ccccc3)n2)n1Cc1ccccc1	0.45	/
C1=C(C(c2nnnn2C2CCCCC2)N2CCCCC2)COc2ccccc21 (stereo not given)	-0.55	/
CCCCOc1ccc(NC(=O)CCSc2nccn2C)cc1	-0.35	0.065
O=C(CCc1ccc(O)cc1)NNC(=S)Nc1cccc(C(F)(F)F)c1	/	-0.975

Record cards (already shown):
Profile of `O=[N+]([O-])c1ccc(-c2nc(-c3ccc(-c4nc(-c5ccc([N+](=O)[O-])cc5)c(-c5ccccc5)[nH]4)cc3)[nH]c2-c2ccccc2)cc1` → AID504770: /; Ba CapD inh: 0.035
Profile of `COC(CNC(=O)CN1C(=O)/C(=C/c2ccccc2F)Oc2ccccc21)OC` → AID504770: 1.35; Ba CapD inh: 3.44

More entries:
SMILES	AID504770	Ba CapD inh
COc1ccc2c(c1)-c1c(ssc1=S)C(C)(C)N2C(=O)c1ccccc1	/	-0.68
C(=N\NC1=Nc2cccc3cccc1c23)/c1ccccn1	0.2	/
COc1cc(-c2ccc(Cl)cc2)nc(N)n1	-0.05	1.72
CC1CC(=O)Nc2ccccc2N1C(=O)c1cccc(Cl)c1 (stereo not given)	/	-0.47
O=C(/C=C/c1ccccc1)N1CCCC1=O	1.15	/
FC(F)(F)c1ccccc1C1NCc2ccccc2-n2cccc21 (stereo not given)	-0.45	0.035
O=C(NCc1cn2ccccc2n1)c1cccc(C(F)(F)F)c1	-0.7	-0.42
O=C1C2C3c4ccccc4C(c4ccccc43)C2C(=O)N1OCc1ccc(F)cc1 (stereo not given)	/	-0.355
O=C(NC1CCN(c2nccc(C(F)(F)F)n2)CC1)c1cccs1	0.3	0.345
COc1ccc(C2=NN(C(=O)CCCC(=O)O)C(c3cc(OC)ccc3OC)C2)cc1 (stereo not given)	/	-0.055
CN(CCc1ccccn1)C(=O)OCCCCc1ccccc1	/	-1.22
Cc1nn(C(C)(C)C)c(C)c1C#N	-0.55	-0.57
CCCCC(C(=O)O)n1cccc1 (stereo not given)	-0.55	0.225
COc1cccc(CNCC(C)O)c1OC (stereo not given)	0.25	0.215
COc1ccc(CCNS(=O)(=O)c2ccc(Cl)cc2)cc1OC	/	-0.045
Cc1nc2ccn(Cc3cccnc3)c(=O)c2cc1C(=O)Nc1ccccc1	0.55	2.71
COc1ccc(/C(C)=N/NC(=O)Cc2c(C)nc(C)[nH]c2=O)cc1	1.6	-0.445
CC(=O)Nc1cccc(Oc2nnc(-c3ccc(Cl)cc3)c3ccccc23)c1	/	-0.065
CC(C)Sc1n[nH]c(=S)n1N	-0.05	/
CCOC(=O)C1=C(C)NC2=C(C(=O)C(C(=O)OCC)C(c3ccc(OC)cc3)C2)C1c1ccccc1Cl (stereo not given)	/	21.9
CCn1c(SCC(=O)NC(C)(C#N)C(C)C)nnc1-c1ccccc1 (stereo not given)	-0.5	/
CCOc1ccccc1NC(=O)c1ccccc1C	1.35	-0.13
O=C(NCC1CCN(Cc2cccc(Cl)c2)CC1)Nc1ccc(Cl)cc1	0	-1.5
CCCOC(=O)Nc1nnc(CCC)s1	1.6	-0.39
CCOC(=O)c1c(C)[nH]c(C)c1C(=O)COC(=O)CSc1nnc(-c2ccco2)n1CC	0.15	/
CC(=O)NC1C(Oc2ccccc2)OC(COC(C)=O)C(OC(C)=O)C1OC(C)=O (stereo not given)	-0.45	/
CCOc1ccc(NC(=O)c2cn(CC(C)C)c(=O)c3c2c2ccccc2n3C)cc1	-2.85*	-0.095
CC(C)(C)C(=O)CN1C2=NCCN2c2ccccc21	/	-0.42
CC1=C(C(=O)OC(C)(C)C)C2(C(=O)Nc3ccccc32)C(C(=O)OC(C)(C)C)=C(N)O1 (stereo not given)	/	-0.755
Cc1[nH]c(=S)c(C#N)c(-c2ccco2)c1C(=O)O	-0.15	/
Cc1ccc(-n2nc3c(c2NC(=O)C(C)(C)C)CSC3)cc1	-0.8	0.16
